# Screening data: PubChem BioAssay, several laboratories
# PKD1 inh – inhibitors of human PKD1 kinase | Q15139 | PKD1 kinase fluorescence polarization assay | inhibition, %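 (about 10 µM by stock and volumes)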 | 200,000 compounds, 0.056% hits | AID 797;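 active = inhibition of 50% or more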;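 note: controls were vehicle for no effect and a reference inhibitor for full effect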
# INS promoter inh – TRM-6 insulin promoter activity inhibition. TRM-6 cells (human fetal islet line), insulin promoter-eGFP reporter, imaging; reporter expression induced with tamoxifen. inhibition, % at 2 µM. 130,000 compounds, 0.9% hits;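 active = inhibition above the mean plus 3 SD, with well images judged a real hit on visual review, cut at about 60% in these data, passing the limit was not always enough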
# GALR2 agonist – agonists of human galanin receptor 2 (GALR2); GALR2-expressing cells, agonist activation read-out; 140,000 compounds, 0.48% hits; activation, %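 (tested at 5 µM)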;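 active = above mean plus 3 SD of all compounds, about 5% in these data, not always enough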;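 note: 0% = vehicle buffer wells and 100% = reference agonist at full effect; tested in CHO reporter cells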
# Target sequence (O43603 whole entry, looked up): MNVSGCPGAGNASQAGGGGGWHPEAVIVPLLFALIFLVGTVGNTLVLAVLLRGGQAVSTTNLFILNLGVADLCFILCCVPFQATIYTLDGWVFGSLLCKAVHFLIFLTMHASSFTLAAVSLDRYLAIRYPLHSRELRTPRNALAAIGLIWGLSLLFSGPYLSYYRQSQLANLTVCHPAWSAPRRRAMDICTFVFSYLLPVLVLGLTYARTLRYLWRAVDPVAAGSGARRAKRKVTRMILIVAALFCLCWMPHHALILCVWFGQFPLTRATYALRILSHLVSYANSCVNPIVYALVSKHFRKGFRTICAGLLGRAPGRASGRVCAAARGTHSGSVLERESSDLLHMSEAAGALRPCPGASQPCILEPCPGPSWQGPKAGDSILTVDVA
# RGS16-Gao – regulators of human RGS16-Galphao interaction. bead-based flow cytometry RGS16-Galphao binding, fluorescence; actives lie on both sides. binding response (% of control), % at 10 µM. 220,000 compounds, 0.38% hits. AID 1441;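 active = below 25% or above 175%, edge rows of some plates excepted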;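 note: Galphao activated by GDP with aluminum fluoride before binding; 100% = wells without compound and 0% = beads without RGS; some results beyond the cut were filed as inactive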
# Target sequence (O15492 whole entry, looked up): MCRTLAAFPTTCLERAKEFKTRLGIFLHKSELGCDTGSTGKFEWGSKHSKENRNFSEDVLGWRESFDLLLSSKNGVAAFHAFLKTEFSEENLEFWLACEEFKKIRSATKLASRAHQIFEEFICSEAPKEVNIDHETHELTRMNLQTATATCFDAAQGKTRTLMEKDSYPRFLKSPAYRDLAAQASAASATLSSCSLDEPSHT
# Target sequence (P09471 whole entry, looked up): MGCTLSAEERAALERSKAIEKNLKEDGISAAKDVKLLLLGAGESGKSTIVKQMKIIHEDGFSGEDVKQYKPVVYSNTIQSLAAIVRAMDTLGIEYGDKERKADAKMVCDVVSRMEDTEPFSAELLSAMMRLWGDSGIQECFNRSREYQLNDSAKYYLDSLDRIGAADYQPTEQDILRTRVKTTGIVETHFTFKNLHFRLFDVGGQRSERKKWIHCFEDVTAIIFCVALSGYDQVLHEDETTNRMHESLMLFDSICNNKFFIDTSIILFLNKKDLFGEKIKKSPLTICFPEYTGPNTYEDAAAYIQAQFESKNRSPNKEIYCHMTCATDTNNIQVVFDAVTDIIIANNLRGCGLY
# HSV replic up – increases HSV replication in cells | 220,000 compounds, 0.005% hits | HSV replication augmentation in cells, fold increase | AID 1956 | maximum fold increase;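 active = peak rise of 1.5-fold or more in the series; tested in PC3 cells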;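 note: first round at 10 µM; read as green reporter fluorescence; hits show the peak of a series up to 25 µM; 1 = signal of infected wells without compound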
# INS promoter inh cell count – second read-out of INS promoter inh, no call of its own (marks repeat the call); normalized cell count, %; measured here: cell count, toxicity; reference of the scale not given here;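 cells exposed to compound for 48 h; stained nuclei by imaging scaled within each plate; lower means fewer cells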
# HSV replic up primary fold – second read-out of HSV replic up, no call of its own (marks repeat the call); fold increase; compound at 10 µM; measured here: primary screen fold increase 10 uM; tested in PC3 cells;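 GFP signal in the first replicate; 1 = infected wells without compound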
# Starred values were filed as active, the others as inactive; i = inactive; · = not tested or not shown. Not a hit list. About 1.3% of those tested had a hit in this group.
SMILES,PKD1 inh,INS promoter inh,INS promoter inh cell count,GALR2 agonist,RGS16-Gao,HSV replic up,HSV replic up primary fold
Cc1cccc(NS(=O)(=O)c2cc(NC(=O)CC(=O)c3ccc([N+](=O)[O-])cc3)ccc2C)c1,-1,18,112,·,101,i,0.96
O=C(CSc1nnc2c(Cl)cc(C(F)(F)F)cn12)NCc1ccc(F)cc1,-1,25,140,1.2,110,i,0.96
COc1ccc(NC(=O)Nc2cccc([N+](=O)[O-])c2)cc1Cl,-1,·,·,0.1,101,i,0.75
COc1ccc(C(=O)/C=C/c2ccc(O)cc2)c(O)c1CC=C(C)C,-4,14,136,0.2,104,i,0.81
Cc1cc2c(c(SCC(=O)Nc3ccc(C)c(C)c3)n1)C(=O)OC2,7,-47,91,·,102,i,0.84
COc1cc(CN2CC(C)OC(C)C2)cc(OC)c1 (configuration not stated),0,8,112,-1.3,·,i,0.81
CC1(C)Cc2ccccc2C2=NNC(=O)C2=N1,-8,·,·,·,100,i,0.88
O=C(O)CC1(CC(=O)NCc2ccc(C(F)(F)F)cc2)CCCCC1,·,·,·,·,100,i,1.1
CC(C)COC(=O)/C(C#N)=C/c1cn(Cc2ccccc2)c2ccccc12,1,·,·,-1.1,107,i,1.1
CC1=C/C(=N\N=C2\NC(=O)C(CC(=O)Nc3ccccc3F)S2)CC(C)(C)C1 (configuration not stated),-8,-21,127,·,101,i,0.81
Cc1ccc(OCC(=O)Nc2ccc3c(c2)nc(CCN2CCN(C)CC2)n3C)cc1,·,·,·,·,94,i,0.93
O=C(C[N+]1(CC#Cc2ccccc2)CCCCC1)c1ccccc1,-1,40,121,·,101,i,0.87
Cc1cc(C(=O)CN(Cc2ccc(F)cc2)S(=O)(=O)c2ccc3c(c2)OCCO3)c(C)n1C,-6,29,100,-0.2,109,i,0.9
COc1ccc(NC(=O)C2CCN(C(=O)NCc3ccccc3)CC2)cc1,-1,·,·,0.4,100,i,0.98
O=c1cc(O)c2sc3nc4c(c(C(F)(F)F)c3c2[nH]1)CCCCC4,·,·,·,·,102,i,1
CCOC(=O)N1CCN(C(=O)c2cc(S(=O)(=O)N3CCCC3)cn2C)CC1,2,·,·,-3.4,66,i,1
Cc1ccc2c(c1)C1CN(C)CCC1N2C(=O)c1ccccc1NS(=O)(=O)c1ccc(F)cc1 (configuration not stated),-5,·,·,0.7,100,i,0.93
CC(C)CN(CC(C)C)C(=O)C12CCC(C)(C(=O)C1)C2(C)C (configuration not stated),-5,16,62,-1.5,103,i,0.82
CC(C)(C)C(=O)NC1CCN(S(=O)(=O)c2ccccc2F)CC1,-4,43,85,-0.8,102,i,1.1
CCc1ccccc1NC(=O)C1NC(=O)CC1c1ccccc1 (configuration not stated),0,·,·,-1.6,101,i,0.98
CCOc1ccc(C(O)c2nccn2Cc2ccccc2)cc1 (configuration not stated),3,-40,66,-1.5,110,i,0.82
CN1CCN(c2oc(-c3ccco3)nc2S(=O)(=O)c2ccccc2)CC1,-5,·,·,-1.7,101,i,0.88
CC1Cc2ccccc2N1CC(=O)Nc1ccc(Cl)c(S(=O)(=O)N(C)C)c1 (configuration not stated),5,0,63,·,90,i,0.98
CC(=O)Nc1c(O)n(C)c2ccccc12,-4,·,·,-0.9,94,i,1.2
CC(=O)N1CCN(C2=NC(=O)C(=C3CCCCC3)S2)CC1,6,-11,159,-2.3,96,i,1
Cc1cc(=O)n(CC(=O)Nc2cc(Cl)ccc2C)c(C(C)C)n1,2,·,·,·,106,i,1.1
CC(C)c1nnc(NC(=O)C2CCN(c3nc4ccccc4s3)CC2)s1,-6,·,·,-1.2,97,i,1
CNC(=O)/C=C1\NC(C)(C)Cc2ccccc21,-6,·,·,-1.4,100,i,0.95
O=C(CSc1nnc(-c2ccccn2)n1Cc1ccco1)Nc1ccc2c(c1)OCO2,-2,-11,112,-2.2,98,i,0.71
CCCCN(c1ccccc1)S(=O)(=O)N(C)C,7,-30,85,·,102,i,0.98
O=C1CCCC(O)=C1C1C2=C(CCCC2=O)Oc2ccccc21 (configuration not stated),5,50,119,-1.0,102,i,0.82
CC(C)C(NC(=O)c1c(F)cccc1F)C(=O)NCC(c1ccccc1)N(C)C (configuration not stated),-1,-21,86,·,101,i,1
O=C(NNC(=O)c1nn(-c2ccc(F)cc2)ccc1=O)c1ccc(Cl)cc1,·,·,·,·,98,i,1.1
CCOC(=O)[C@H](CCc1ccccc1)N[C@@H](C)C(=O)N1CCC[C@H]1C(=O)O,0,67*,126*,-0.7,106,i,0.87
CC1(C(=O)Oc2ccccc2)Cc2ccccc2C(=O)O1 (configuration not stated),6,7,77,·,100,i,0.9
O=C(Nc1nnc(-c2ccc3c(c2)OCCO3)o1)c1ccc(Cc2ccccc2)cc1,-17,·,·,-3.5,95,i,0.86
Cc1onc(-c2c(Cl)cccc2Cl)c1C(=O)Nc1ccc2c(c1)OCO2,-8,·,·,-1.3,87,i,1.1
O=C(C1CCN(S(=O)(=O)c2cccc3nsnc23)CC1)N1CCN(c2ccccc2F)CC1,-2,33,181,0.2,115,i,1
c1ccc(NCc2nnc3n2CCCCC3)cc1,1,·,·,-2.8,143,·,·
O=C(COC(=O)c1ccc(S(=O)(=O)N2CCCC2)cc1)NCc1ccccc1,3,21,85,-2.3,110,i,0.91

# Brought forward from above: two entries, followed by the next part.
SMILES,PKD1 inh,INS promoter inh,INS promoter inh cell count,GALR2 agonist,RGS16-Gao,HSV replic up,HSV replic up primary fold
c1ccc(NCc2nnc3n2CCCCC3)cc1,1,·,·,-2.8,143,·,·
O=C(COC(=O)c1ccc(S(=O)(=O)N2CCCC2)cc1)NCc1ccccc1,3,21,85,-2.3,110,i,0.91
C[C@H](NC(=O)Cc1cccc2ccccc12)C(=O)N1CCCN(C)CC1,-10,-10,93,·,127,i,0.76
CC(C)SCCCOc1ccc(C(C)(C)C)cc1,-1,10,109,-2.3,97,i,1
C=CCN(CC=C)CCOc1ccccc1,-11,19,126,-2.2,102,i,0.92
Clc1cccc(Cl)c1/C=C/c1nc2ccccc2[nH]1,-13,·,·,-1.2,102,i,0.85
CCCCCCn1c(SCC(=O)c2c(N)n(C)c(=O)n(C)c2=O)nc2ccccc21,1,-12,115,-1.5,107,i,1
CCS(=O)(=O)CCSc1nc(C)cc(C)c1C#N,4,44,107,-0.5,102,i,0.81
CCNC(=O)Oc1ccc(-c2csnn2)cc1,-4,-12,133,·,110,i,0.99
COc1ccc(/C=C(\C#N)C(=O)OCC(=O)Nc2ccc(-c3nc4ccc(C)cc4s3)cc2)cc1,4,20,76,·,111,i,0.91
C#CCOC(=O)/C(=C/c1ccc(F)cc1)NC(C)=O,-4,·,·,-1.9,60,i,0.95
COc1ccc2c(Cl)c(C(=O)NN3CCN(C)CC3)sc2c1,-4,·,·,·,103,i,0.96
Cc1ccc(-n2nc(CC#N)c(C#N)c2N)cc1,0,·,·,-0.1,101,i,0.99
Cc1ccsc1/C=C1\SC(N2CCOCC2)=NC1=O,-2,46,95,-3.8,83,i,0.87
O=C(Cc1ccccc1)N/N=C/c1cc(Br)cc(Cl)c1O,6,·,·,·,90,i,0.97
CC1=C(C(=O)OC(C)C)C(c2c[nH]c3ccccc23)n2ncnc2N1 (configuration not stated),-3,·,·,-2.5,105,i,0.91
O=S(=O)(Nc1cc(Sc2cccc3cccnc23)c(O)c2ccccc12)c1ccc(F)cc1,0,-45,35,-2.3,52,i,0.74
O=C(NCCCCc1ccccc1)C12CN(Cc3ccccc3)CC1C(c1cccc([N+](=O)[O-])c1)=NO2 (configuration not stated),-4,-14,83,-1.3,108,i,0.88
COc1cc(OC)cc(C(=O)NC(=S)Nc2cccnc2)c1,-10,7,114,-2.6,100,i,1
COc1ccc2cnn(CCOc3cc(C)ccc3C(C)C)c(=O)c2c1OC,-16,6,101,-1.6,44,i,0.84
Cc1ccc(NC(=O)CCCN2C(=S)NC(C)(C)CC2C)cc1 (configuration not stated),-4,·,·,·,87,i,0.88
O=C(CSc1nnc(SCc2ccc(Cl)cc2)s1)N/N=C/c1c(Cl)cccc1Cl,0,·,·,0.4,110,·,·
CCCOc1ccc(CCN2CCC(=O)NC2=O)cc1C,1,-100,134,-1.8,102,i,0.96
CCC(C)C1NC(=S)N(C2CCCCC2)C1=O (configuration not stated),-5,57,41,0.3,102,i,0.95
CC(=O)c1cccc(N=C2NC(=O)C(CO)(CO)S2)c1,-12,-147,91,-1.9,116,i,1.2
Cc1ccc(NC(=O)C2CCCN(S(=O)(=O)c3ccc4c(c3)oc(=O)n4C)C2)nc1 (configuration not stated),-5,·,·,-0.6,102,i,0.95
COc1ccccc1N1CCN(C(=O)CSc2ncnc3scc(-c4ccccc4)c23)CC1,1,51,104,0.0,109,i,0.98
Cc1ccc(NC2=CC(=O)OC(C)C2)cc1 (configuration not stated),0,0,99,0.0,100,i,0.96
CCN(CC)C(=O)Cn1cc(SCC(=O)Nc2cc(C)on2)c2ccccc21,0,-115,93,·,103,i,0.97
Cc1ccc(NC(=O)CS(=O)CC(=O)NCCCN(C)c2ccccc2)cc1 (configuration not stated),-4,-109,123,-1.6,106,i,0.97
O=C(Cc1cccs1)N1CCN(S(=O)(=O)c2ccc(F)cc2)CC1,-2,·,·,·,104,i,0.94
O=C(Nc1cccc(Oc2ccc3c(c2)C(=O)NC3=O)c1)c1ccco1,-11,-31,117,-2.2,101,i,0.96
Cc1nc(C)c(-c2ccnc(/N=C/NO)n2)s1,·,·,·,·,85,i,1.1
O=C(CSc1nnc2ccccn12)c1ccc(Cl)cc1,4,-80,121,·,100,i,0.93
COCc1c(C(=O)OC)nnn1-c1ccc(C(F)(F)F)cc1[N+](=O)[O-],8,·,·,·,93,i,0.77
Cc1ccc(S(=O)(=O)NC(C)C(c2cccs2)N2CCN(C)CC2)cc1 (configuration not stated),-1,-112,163,-2.4,106,i,0.96
C=CCNC(=S)NN(c1ccccc1)c1ccccc1,-2,-42,131,·,103,i,0.98
COc1ccc(C(=O)Nc2ccccc2-c2ccccc2)cc1Cl,-3,26,78,-0.9,56,i,1.1
CC(=O)c1c(-c2ccc(Cl)cc2Cl)noc1C,·,·,·,·,100,i,0.98
CC(C)OC(=O)NC(c1ccccc1)C(Cl)(Cl)Cl (configuration not stated),-2,12,64,-1.3,106,i,1.1
CCc1ccccc1NC(=S)NC1CC2CCCC(C1)N2Cc1cccs1 (configuration not stated),6,·,·,-0.4,97,i,1.4
Cc1ccc(S(=O)(=O)N2CCN(Cc3cccc(C)c3O)CC2)cc1,4,-41,111,-2.1,100,i,1.1

# One compound at a time, as listed above. Values in the order: PKD1 inh	INS promoter inh	INS promoter inh cell count	GALR2 agonist	RGS16-Gao	HSV replic up	HSV replic up primary fold
# CC(=O)c1c(-c2ccc(Cl)cc2Cl)noc1C in the list: ·	·	·	·	100	i	0.98
# Cc1ccc(NC(=O)CS(=O)CC(=O)NCCCN(C)c2ccccc2)cc1 (configuration not stated) in the list: -4	-109	123	-1.6	106	i	0.97
# Cc1ccc(S(=O)(=O)N2CCN(Cc3cccc(C)c3O)CC2)cc1 in the list: 4	-41	111	-2.1	100	i	1.1
# COc1ccccc1N1CCN(C(=O)CSc2ncnc3scc(-c4ccccc4)c23)CC1 in the list: 1	51	104	0.0	109	i	0.98

# (next part)
SMILES,PKD1 inh,INS promoter inh,INS promoter inh cell count,GALR2 agonist,RGS16-Gao,HSV replic up,HSV replic up primary fold
Cc1cc(C2=NNC(=NCc3ccccc3)SC2)c(C)n1-c1c(C)n(C)n(-c2ccccc2)c1=O,8,·,·,-0.5,77,i,1.1
COc1ccc(CN2C(=O)NC3(CCOc4ccccc43)C2=O)cc1F (configuration not stated),5,·,·,-1.5,105,·,·
O=C(COc1cc(O)c2c(=O)cc(-c3ccccc3)oc2c1)c1ccccc1,-11,12,119,-0.9,95,i,1
COc1ccc(N2CCN(C(=O)CSc3ncnc4scc(-c5ccc(C)cc5)c34)CC2)cc1,-11,4,135,-3.2,·,i,0.92
CCCCN1Cc2c(nc3cc(-c4ccco4)[nH]n3c2=O)C1=O,·,·,·,·,97,i,0.94
COC(=O)c1sccc1-c1ccc(C(=O)Nc2ccccc2)o1,-5,-15,141,-3.2,104,i,0.85
Cc1c(NC(=O)c2cc(-n3cnnc3)ccc2Cl)cccc1-c1nc2ccccc2s1,-14,-46,94,-3.4,132,i,0.89
Cc1ccc(NC2c3ncccc3C(=O)N2Cc2ccc(F)cc2)cc1 (configuration not stated),-4,7,105,-2.5,109,i,1
O=c1c2oc3ccccc3c2[nH]c(=S)n1-c1ccccc1,-2,68,106,-0.7,11,i,1
